Menin MLL FP FL: displaces fluorescein MLL peptide from human menin | Fluorescence polarization, fluorescein-MLL peptide displacement from menin | FP activity change, % at 61.4 µM | 290,000 tested, under 10 active; inconclusive = falling polarisation curve, or a change in total fluorescence; inactive = total fluorescence flat and polarisation flat or rising; no compound was filed as active; the % refers to the polarisation; negative = inhibition;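 further: % of control where 0% means no effect; inhibitors lower the polarisation; unlabelled MLL peptide was the positive control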
Sfp inh: Sfp phosphopantetheinyl transferase inhibition. Biochemical Sfp PPTase activity, qHTS. actives 3.5% (n = 310,000). Potency, µM, inactives show max response, negative = inhibition, actives largely listed as inhibitors; active means well fitted inhibition curve with a large enough effect; inconclusive means small, poorly fitted or top-dose-only effect, or another doubt; inactive means no such curve, though single readings can be large or run the other way;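 further: the enzyme is Sfp with the accession as filed and its product quenches rhodamine fluorescence; potency means the concentration at half of the fitted maximal effect; 0% = enzyme reaction without inhibitor and -100% = no enzyme wells; top concentration of the series not given in the record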
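Fluorescence-quenching assay: 15 nM Sfp-PPTase preincubated 15 min at room temperature with compound, then 5 uM rhodamine-CoA and 12.5 uM BHQ-2-labelled YbbR peptide added. Fluorescence (ex 525/em 598 nm) read at start and after 30 min; difference gives rate.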
* = called active by the depositor; u = inconclusive; & = joins results of further samples; [ ] = another dose, or the depositor's remark.

Results follow in this order: Menin MLL FP FL	Sfp inh
- CCN1C(=O)[C@H]2[C@H]3[C@H](O)[C@H](O)C/C(=N/OCc4ccccc4)[C@@H]3CC[C@@H]2C1=O
  -1.3[11.7 µM]	4.7%
- CNC1C(O)[C@@H]2OC(O[C@@H]3C(O)C(O)C(N)C[C@H]3N)C(N)C[C@H]2O[C@H]1O[C@@H]1OC(CO)C(N)C(O)C1O (stereo partly specified)
  -3.6	5.2%
- COC(=O)[C@H](CCSC)NC(=O)c1ccc(NC[C@@H](N)CS)cc1-c1ccccc1
  -5.9	u
- CS(=O)(=O)Nc1ccc([N+](=O)[O-])cc1OC1CCCCC1
  u	3.3%&10.2%
- CCCCS(=N)(=O)CCC(N)C(=O)O (stereo unspecified)
  -7.2&1.1	-26.9%
- CC[C@H]1NC(=O)c2cc(S(N)(=O)=O)c(Cl)cc2N1
  4.8[24.8 µM]	10.3%
- CNC(=O)[C@]1(C)C[C@H]1[C@H](NC(=O)[C@]1(C)C[C@H]1[C@H](NC(=O)[C@]1(C)C[C@H]1[C@H](NC(=O)[C@]1(C)C[C@H]1[C@H](NC(=O)OCc1ccccc1)c1ccccc1)c1ccccc1)c1ccccc1)c1ccccc1
  -0.6	15.4%
- C[C@H]1NC(=O)NC1=O
  1.4&5.2[24.8 µM]	11.2%&17.7%
- C=CC(C)(C)c1c2c(c(O)c3c(=O)c4ccc(O)c(O)c4oc13)C=CC(C)(C)O2
  4.0	11.3%
- IC(I)I
  1.0	44.7µM*
- COC(=O)CC1c2ccccc2C=C(/C=C/c2ccc3c(c2)OCO3)N1C(=O)OC (stereo unspecified)
  3.2[11.7 µM]	0.6%
- O=C(Nc1ccncc1)c1cc([N+](=O)[O-])ccc1Cl
  -3.9	23.9%
- COC(=O)C1CC1C(NC(=O)[C@@H]1CCCN1)c1ccccc1 (stereo partly specified)
  -1.3	12.3%
- CC(C)C[C@@H](CC(=O)N[C@H](CC(=O)N[C@@H]1CCCC[C@H]1C(=O)N[C@H](CC(=O)N[C@@H](CCC(=O)O)CC(=O)O)CC(C)C)C(C)C)NC(=O)[C@@H]1CNCC[C@H]1N
  2.4	-20.8%
- CC(=O)Nc1ccc(S(=O)(=O)Nc2ccc([N+](=O)[O-])cc2)cc1
  -0.7	11.1%
- COC(=O)[C@H]1O[C@@H](c2cc(OC)c(C)c(OC)c2OCc2ccccc2)[C@H](C)[C@H]2O[C@@]12C
  -3.2&-1.0	1.3%&13.6%
- O=Nc1c(-c2c(O)[nH]c3ccccc23)[nH]c2ccccc12
  9.1&4.1	-27.6%&-14.9%
- Oc1cc(O)cc(O)c1
  -5.9	13.5%
- CC[C@@]12CCCN3CCc4c(n(c5ccccc45)C(=O)C1)[C@H]32
  0.5[24.8 µM]	18.0%
- C[C@@H]1NC(=O)[C@@H](C)COC(=O)[C@H](C)NC(=O)[C@@H](C)COC1=O
  -3.1[11.7 µM]	6.1%
- CCC(=O)c1ccc2c(c1)N(CCCN1CCN(CCO)CC1)c1ccccc1S2
  1.2	79.4µM*
- CC(C)[C@@H](CC(=O)N[C@@H]1CCNC[C@H]1C(=O)N[C@H](CC(=O)N[C@@H](CCC(=O)O)CC(=O)O)Cc1c[nH]c2ccccc12)NC(=O)C[C@H](Cc1c[nH]c2ccccc12)NC(=O)[C@@H]1CCCC[C@H]1N
  -4.9	-5.5%
- CCOC(=O)CCN1C(=O)[C@H]2[C@H]3[C@H](O)[C@H](O)C/C(=N/OC[C@@H](O)COCc4ccco4)[C@@H]3CC[C@@H]2C1=O
  0.0[11.7 µM]	7.1%
- O=S(O)CO
  -0.8	2.2%
- CCOC(=O)C(CCc1ccccc1)NC(C)C(=O)N1CCCC1C(=O)O (stereo unspecified)
  -0.5	3.4%
- CC1CCC(C(=O)O)NC1c1ccc(C#CCN(C)C)cc1 (stereo unspecified)
  0.9[11.7 µM]	12.0%
- C[C@H](O)CO[C@H]1[C@H]2O[C@H]3[C@H](O)[C@@H](O)[C@@H](O[C@H]4[C@H](O)[C@@H](O)[C@@H](O[C@H]5[C@H](O)[C@@H](O)[C@@H](O[C@H]6[C@H](O)[C@@H](OC[C@H](C)O)[C@@H](O[C@H]7[C@H](O)[C@@H](OC[C@H](C)O)[C@@H](O[C@H]8[C@H](O)[C@@H](O)[C@@H](O[C@@H]([C@@H]1O)[C@@H](CO)O2)O[C@@H]8CO)O[C@@H]7CO)O[C@@H]6CO)O[C@@H]5CO)O[C@@H]4CO)O[C@@H]3CO
  4.4	7.9%
- COc1cc(OC)cc(-c2nnc3n2N=C(c2ccc(OC)cc2OC)CS3)c1
  -4.2	56.2µM*
- COc1cc(NCc2ccc3nc(N)nc(N)c3c2C)cc(OC)c1OC
  0.2&11.1	31.6µM*
- CCOC(=O)C1C(C(=O)OC)=C(CC(C)C)c2ccccc2N1S(=O)(=O)C(F)(F)F (stereo unspecified)
  0.4	15.7%
- Cc1c2ccccc2c(CSC(=N)N)c2ccccc12
  -2.0	44.7µM*
- CC(C)(C)c1ccc(C[C@H](C(=O)O)N2C(=O)c3ccc(C(=O)O)cc3C2=O)cc1
  -1.5	31.0%[activator]
- CC(C)CC(NC(=O)C(COC(C)(C)C)NC(=O)C(Cc1ccc(O)cc1)NC(=O)C(CO)NC(=O)C(Cc1c[nH]c2ccccc12)NC(=O)C(Cc1cnc[nH]1)NC(=O)C1CCC(=O)N1)C(=O)NC(CCCN=C(N)N)C(=O)N1CCCC1C(=O)NNC(N)=O (stereo unspecified)
  -6.3&0.0	3.5%&-8.4%
- O=C1/C(=C/c2ccc(O)c(O)c2)Oc2ccccc21
  u	u
- CC(C)CCN1CCc2nc(-c3ccccc3)c3c(c2C1)COC(C)C3 (stereo unspecified)
  6.8[11.7 µM]	-5.6%
- CC(O)c1cccc2cc(C(O)CNC(C)(C)C)oc12 (stereo unspecified)
  -1.5	7.1%
- CC(C)CCN1CCc2nc(COc3ccccc3)c3c(c2C1)COC(C)C3 (stereo unspecified)
  -0.1[11.7 µM]	-1.7%
- CC(C)CO/N=C1/C[C@@H](O)[C@@H](O)[C@@H]2[C@@H]3C(=O)N(C(C)(C)C)C(=O)[C@H]3CC[C@@H]12
  -1.9[11.7 µM]	0.6%
- COC(=O)Cn1c(C(=O)N(C)C)cc2c1C[C@H]1CN(C(=O)c3ccccc3)[C@@](Cc3ccc(OC)cc3)(C(=O)OC)[C@@H]21
  6.2	16.9%
- C=CC(=O)O
  2.3	16.4%

Other compounds.
Molecule | Menin MLL FP FL | Sfp inh
O=C(CCCCCCCCCCCCC1CCCC1)Nc1ccc(S(=O)(=O)c2ccc(NC(=O)CCCCCCCCCCCCC3CCCC3)cc2)cc1 | u | -9.7%
O=C1N=C2SCCN2C(=O)C1Cc1ccc(Cl)cc1 (stereo unspecified) | 1.5 | 17.9%
NC[C@@H]1O[C@H](O[C@@H]2[C@H](O[C@@H]3O[C@H](CO)[C@@H](O)[C@@H]3O)[C@@H](O)[C@@H](N)C[C@H]2N)[C@@H](N)[C@H](O)[C@@H]1O | 2.8[24.8 µM] | 27.7%
CCOC(=O)CCN1C(=O)[C@H]2[C@H]3[C@H](O)[C@H](O)C/C(=N/NC(=O)OCc4ccc(OC)cc4)[C@H]3CC[C@@H]2C1=O | 5.5[11.7 µM] | 1.4%
CC1(C)[C@@H]2CC[C@]1(C)[C@@H](OC(=O)CSC#N)C2 | -0.7 | 4.8%
Cc1noc(C)c1-c1ccc2ncnc(NCc3cccc(-c4ccccc4)c3)c2c1 | 3.8 | 9.5%
C=C1c2ccccc2O[C@H](C(=O)OCC)[C@@H]1CCC(C)C (tested in a mixture with another compound) | 3.1[94.6 µM] | -0.5%
C=CC1=C2C=C(C3CC3)N(CCCCO)C=C2C(=O)C(C)(OC(=O)c2ccco2)C1=O (stereo unspecified) | -11.5[11.7 µM] | 9.7%
C=CC1=C2C=C(C3CC3)N(CCN3CCOCC3)C=C2C(=O)C(C)(OC(=O)c2ccco2)C1=O (stereo unspecified) | u | 15.9%
C=C1CC[C@H](O)C/C1=C/C=C1\CCC[C@]2(C)[C@@H]([C@H](C)CCCC(C)(C)O)CC[C@@H]12 | 3.2&-1.5 | 21.3%&-25.9%
CCN(C)C(=O)Oc1cccc([C@H](C)N(C)C)c1 | -1.4 | -4.3%
COc1ccc(O[C@H]2C=C[C@@H](c3ccccc3)O[C@H]2COC(=O)CC/C(C)=N\O[C@@H](C)c2cn([C@H](CO)Cc3ccccc3)nn2)cc1 | 1.7&-1.8[11.7 µM] | 22.7%&14.1%
C[C@H](NC(=O)CNC(=O)[C@@H](NC(=O)[C@H](Cc1ccccc1)NC(=O)CNC(=O)CNC(=O)[C@@H](N)Cc1ccccc1)[C@@H](C)O)C(=O)N[C@@H](CCCN=C(N)N)C(=O)N[C@@H](CCCCN)C(=O)N[C@@H](CO)C(=O)N[C@@H](C)C(=O)N[C@@H](CCCN=C(N)N)C(=O)N[C@@H](CCCCN)C(N)=O | -4.5 | 16.5%
COC(=O)[C@@H]1CCCN1C(=O)[C@H]1C[C@@H]1[C@H](NC(=O)OCc1ccccc1)c1ccccc1 | -4.3 | 5.8%
Cc1ccc(C(C)C)n1C(=O)OC(C)(C)C | -2.5[11.7 µM] | 4.9%

Single records (already shown). Screens in order: Menin MLL FP FL	Sfp inh
C=C1CC[C@H](O)C/C1=C/C=C1\CCC[C@]2(C)[C@@H]([C@H](C)CCCC(C)(C)O)CC[C@@H]12 is listed as 3.2&-1.5	21.3%&-25.9%
COC(=O)CC1c2ccccc2C=C(/C=C/c2ccc3c(c2)OCO3)N1C(=O)OC (stereo unspecified) is listed as 3.2[11.7 µM]	0.6%
COC(=O)C1CC1C(NC(=O)[C@@H]1CCCN1)c1ccccc1 (stereo partly specified) is listed as -1.3	12.3%
C[C@H](O)CO[C@H]1[C@H]2O[C@H]3[C@H](O)[C@@H](O)[C@@H](O[C@H]4[C@H](O)[C@@H](O)[C@@H](O[C@H]5[C@H](O)[C@@H](O)[C@@H](O[C@H]6[C@H](O)[C@@H](OC[C@H](C)O)[C@@H](O[C@H]7[C@H](O)[C@@H](OC[C@H](C)O)[C@@H](O[C@H]8[C@H](O)[C@@H](O)[C@@H](O[C@@H]([C@@H]1O)[C@@H](CO)O2)O[C@@H]8CO)O[C@@H]7CO)O[C@@H]6CO)O[C@@H]5CO)O[C@@H]4CO)O[C@@H]3CO is listed as 4.4	7.9%
CC1(C)[C@@H]2CC[C@]1(C)[C@@H](OC(=O)CSC#N)C2 is listed as -0.7	4.8%

More compounds follow:
Molecule | Menin MLL FP FL | Sfp inh
COc1ccc2c(c1)[C@@]1(C)CCC[C@](C)(CO)C1CC2 (stereo partly specified) | 1.5 | 8.7%
CCN(CC)CC1CCN(c2ncc3ncnc(Nc4ccc(F)c(Cl)c4)c3n2)CC1 | 9.7 | -20.7%
Clc1ccc2ncnc(NCc3ccc4c(c3)OCO4)c2c1 | 0.9&-1.1 | 5.3%&12.9%&-0.2%
C[C@H]1OC(=O)CC[C@@H]2[C@]1(C)CCC1[C@@]2(C)CC[C@@]2(C)C3CC(C)(C)CC[C@]3(CO)CC[C@]12C (stereo partly specified) | 1.7 | 22.2%
COc1ccc(COC(=O)N/N=C2/C[C@@H](O)[C@@H](O)[C@@H]3[C@@H]4C(=O)N(Cc5ccc6c(c5)OCO6)C(=O)[C@H]4CC[C@@H]23)cc1 | 4.1[11.7 µM] | 13.9%
O=C1CC[C@@H](C(=O)N[C@@H](Cc2cnc[nH]2)C(=O)N[C@@H](Cc2c[nH]c3ccccc23)C(=O)N[C@@H](CO)C(=O)N[C@@H](Cc2ccc(O)cc2)C(=O)O)N1 | 7.1 | 27.0%
C/C(CCN1CCCc2nc(C)c(C)cc21)=N\O[C@@H](C)c1cc(-c2c(C)cc(C)cc2C)no1 | -1.8[11.7 µM] | -6.5%
COc1c(-c2coc3cc4c(cc3c2=O)CC(O)C(C)(C)O4)ccc2c1C=CC(C)(C)O2 (stereo unspecified) | -4.7 | -39.5%
CC(=O)OCC(=O)C1CCC2C3CCC4=CC(=O)CC[C@@]4(C)C3CC[C@]12C (stereo partly specified) | 1.0 | -5.1%
C=CCOC(=O)C(C(=O)CC)C(NC(=O)OC)c1ccc(F)cc1 (stereo unspecified) | 1.0[11.7 µM] | -2.2%
Cc1nc(NC2CCCCC2)c2nc(-c3ccccc3)n(CCN3CCCCC3)c2n1 | 6.1 | 11.6%
CC(=O)OCC(=O)[C@@]1(O)[C@H](C)C[C@@H]2[C@H]3CCC4=CC(=O)C=C[C@]4(C)[C@]3(F)[C@@H](O)C[C@@]21C | 4.6[24.8 µM] | 6.3%
CC(C)N=C(N)/N=C(\N)Nc1ccc(Cl)cc1 | -0.8[24.8 µM] | 11.2%
COCCOC(=O)C1=C(C)NC(C)=C(C(=O)OC(C)C)[C@H]1c1cccc([N+](=O)[O-])c1 | -8.2[24.8 µM] | 22.5%
Cc1noc(C)c1S(=O)(=O)N1CCc2nc(COc3ccccc3)c3c(c2C1)CO[C@@H](C)C3 | 0.6[11.7 µM] | 2.7%
CN1C2CCC1CC(NC(=O)c1nn(C)c3ccccc13)C2 (stereo unspecified) | 4.5 | 7.3%
CCN1C(=O)[C@@H]2[C@H]3C(=CC[C@@H]2C1=O)C1(OCCCO1)[C@H]1O[C@@H]1[C@H]3O | -2.5[11.7 µM] | u
CC#C[C@]1(O)CC[C@H]2[C@@H]3CCC4=CC(=O)CCC4=C3[C@H](c3ccc(N(C)C)cc3)C[C@@]21C | u | -8.2%
CCC(C(=O)NC(N)=O)c1ccccc1 (stereo unspecified) | -1.4 | 5.9%
Cn1cc(O)nc1NC(=O)Nc1cccc(Cl)c1 | 4.4 | 2.5%
COC(=O)N[C@@H](CCc1ccccc1)[C@]1(C(=O)OC)CCCC1=O | -0.3 | 8.3%

High-throughput results as filed in PubChem BioAssay.

The list is partial; count on the stated rates, not on these rows.
